# VDR inh – Inhibitors of the vitamin D receptor (VDR): qHTS | Potency, µM, inactives show max response, negative = inhibition, usual class: inhibitors | AID 504847, 2011 | Vitamin D3 receptor (Homo sapiens), P11473 | VDR-SRC2-3 peptide fluorescence polarization, 2 h | 400,000 tested, 0.93% active; active means well fitted inhibition curve with a large enough effect; inconclusive means small, poorly fitted or top-dose-only effect, or another doubt; inactive means no such curve, though single readings can be large or run the other way; further: series mostly up to about 120 µM
# Target sequence (P11473 whole entry, looked up): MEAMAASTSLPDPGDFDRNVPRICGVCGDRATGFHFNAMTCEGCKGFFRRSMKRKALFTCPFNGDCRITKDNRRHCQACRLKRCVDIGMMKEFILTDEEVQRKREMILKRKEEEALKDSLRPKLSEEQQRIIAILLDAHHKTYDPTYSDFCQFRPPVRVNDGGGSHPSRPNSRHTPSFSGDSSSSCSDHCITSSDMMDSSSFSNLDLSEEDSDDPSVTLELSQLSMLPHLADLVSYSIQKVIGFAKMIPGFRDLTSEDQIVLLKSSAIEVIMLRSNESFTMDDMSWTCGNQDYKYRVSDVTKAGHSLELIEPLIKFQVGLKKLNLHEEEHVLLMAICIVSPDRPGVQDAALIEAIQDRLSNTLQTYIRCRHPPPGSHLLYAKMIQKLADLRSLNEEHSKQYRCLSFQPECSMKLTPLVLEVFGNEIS
#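 Compounds are added to VDR with labelled SRC2-3 coactivator peptide and held 2 h at room temperature. Inhibition of the VDR–peptide interaction is then read as a change in fluorescence polarization.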
# * = called active by the depositor; ? = inconclusive; & = joins results of further samples; [ ] = another dose, or the depositor's remark. On the % scale 0 is the no-effect control and ±100 the full control effect; potency means the concentration at half of the fitted maximal effect. A portion of the library; rates above refer to the full screens.
SMILES	VDR inh
Fc1ccc(-c2[nH]ncc2-c2nnnn2-c2ccccc2)c(F)c1	-1.4%
COc1ccc(C(=O)NCC(c2cccs2)N2CCc3ccccc32)c(OC)c1 (centres undefined)	-10.3%
COc1ccc(/C=N/NC(=O)CNC(=O)c2ccc3c(c2)OCCO3)c(C(=O)O)c1OC	-18.0%
Cc1ccc(N2C(=O)NC(NC(=O)C(C)(C)C)(C(F)(F)F)C2=O)cc1C (centres undefined)	-5.6%
CC(C)(C)OC(=O)N1CCCC1C(=O)N1CCc2ccccc21 (centres undefined)	7.4%
CCc1ccccc1N(C(=O)c1snc(C(N)=O)c1N)C(C(=O)NCC1CCCO1)c1ccc(OC)c(OC)c1 (centres undefined)	-5.4%
O=C(N/N=C/c1ccco1)c1cc(-c2cccs2)[nH]n1	-1.7%
O=C(Nc1nc(N2C(=O)c3ccccc3C2=O)n(-c2ccccc2)n1)c1ccc(Cl)cc1	-3.6%
CSc1cccc(NC(=O)C2CCCN(c3ncnc4c3nc3n4CCCCC3)C2)c1 (centres undefined)	-5.1%
Cc1ncc([N+](=O)[O-])n1CC(=O)NC(C)(C)C	14.5%
O=C1[C@H]2[C@H](C=CC[C@H]2C(=O)N2CCOCC2)CCN1Cc1ccc(Cl)c(Cl)c1	10.5%
Cc1c(CC(=O)NCCCCCC(=O)O)c(=O)oc2cc3occ(-c4ccccc4)c3cc12	-5.9%
Cc1ccc(Nc2nc(N3CCOCC3)nc(N3CCOCC3)n2)cc1	2.2%
CCCCc1ccc(NC(=O)CN(C)CC(=O)Nc2ccccc2Cl)cc1	-0.1%
Cc1ccc(C2N(c3cccc(Cl)c3)C(=O)C3CCCN32)o1 (centres undefined)	-8.1%

# (further entries)
SMILES	VDR inh
CC(C)(C)NC(=O)CCSc1nc(-c2ccc3c(c2)OCO3)cc(C(F)(F)F)n1	0.8%
CCCCOCCCNCC(=O)Nc1ccc(S(N)(=O)=O)cc1	4.1%
Cc1ccc(C)c(C(=O)OCC(=O)N(C)c2ccccc2)c1	-10.6%
CCn1c(=O)cc(OCC(=O)N2CCN(c3ccc(C(C)=O)cc3)CC2)c2ccccc21	-24.6%
O=C(Nc1cccc(C(F)(F)F)c1)c1cc2ccc3cccnc3c2[nH]1	15.9%
Cn1nc(-c2ccccc2)c(C(=O)NC(C(=O)O)c2ccccc2)c1Cl (centres undefined)	6.5%
O=C(CSc1nc2ccccc2n1CCc1ccccc1)N1CCOCC1	0.3%
Cc1ccc(NC(=S)NCCN2CCOCC2)cc1	-8.2%
Cc1ccc(NC(=O)CCc2c(C)nc3ncnn3c2C)cc1	-7.1%
O=C(C1CCN(Cc2cc(Cl)ccc2O)CC1)N1CCN(Cc2ccccc2)CC1	-25.1%
CCCCc1nc2cc(C(=O)N3CCC(OC)CC3)ccc2o1	-0.9%
CNc1c(NS(=O)(=O)c2ccc3c(c2)CCCC3)c(=O)oc2ccccc12	20.1%
O=C1COc2ccc(C(=O)COC(=O)Cc3ccccc3F)cc2N1	-12.9%
Cc1ccc2oc(=O)cc(CN3CCC(C)CC3)c2c1	0.8%
Oc1c(C(c2ccccc2F)N2CCN(c3ccccc3F)CC2)sc2nc(-c3ccco3)nn12 (centres undefined)	-6.0%

# Next section:
SMILES	VDR inh
COc1ccc(C)cc1S(=O)(=O)N1CCN(C(=O)c2ncoc2-c2cccc(F)c2)CC1	-21.1%
O=C(N/N=C/c1cc([N+](=O)[O-])ccc1O)c1cccc(N2CCCC2=O)c1	1.0%
CC(C)CCNC(=O)c1ccc(Cn2c(=S)[nH]c3ccccc3c2=O)cc1	-11.2%
CCCn1c(=NC(=O)c2ccco2)c(C(=O)OCC)cc2c(=O)n3ccccc3nc21	5.5%
CCc1cc2c(=O)[nH]cnc2s1	-17.7%
Nc1nc2n(n1)C(=O)CC(c1ccccc1[N+](=O)[O-])N2 (centres undefined)	-9.4%
Cc1cc(C)n(CC(=O)N/N=C/c2ccco2)n1	1.2%
C=CCNC(=O)C12CCC(C)(C(=O)C1Br)C2(C)C (centres undefined)	-2.5%
O=S(=O)(Cc1cc(Oc2ccccc2)nc(-c2ccccc2)n1)c1ccccc1	6.6%
O=C(C1=C(O)C(=O)N(Cc2cccnc2)C1c1ccccn1)c1cccs1 (centres undefined)	-10.8%
O=C(Nc1ccc2oc(-c3ccncc3)nc2c1)c1ccccc1	-14.5%
CCCCNC(=O)C1C2C=CC3(CN(Cc4ccccc4Cl)C(=O)C13)O2 (centres undefined)	19.0%
O=C(CCS(=O)(=O)c1ccc(Br)cc1)NCCc1ccccc1	17.9%
CCCCc1oc2ccccc2c1C(=O)c1cc(I)c(OCCN(CC)CC)c(I)c1	-11.5%&3.8%&4.9%&-4.1%&-5.4%
COc1cccc(-c2csc(NC(=O)C3CC3)n2)c1	2.8%

# (further entries)
SMILES	VDR inh
CNC(=O)N(O)C1N(c2ccccc2)C(=S)SC1(C)C (centres undefined)	1.7%
Cc1cccc(CNC(=O)c2cnc3sc(N4CCCCCC4)nn3c2=O)c1	2.8%
O=c1cc(-c2ccccc2Cl)c2c([nH]1)CCC2	-7.1%
CCOC(=O)c1c(/N=C/N(C)C)sc(/C=N/Nc2ccccc2)c1-c1ccccc1	-19.7%
CCN(CC)c1ccc(/C=N/Nc2nc(C)cc(C)n2)c(O)c1	-8.6%
CC[C@H](C)[C@H](NC(=O)OCc1ccccc1)C(=O)OCC(=O)N1CCN(c2ccc(F)cc2)CC1	4.2%
COc1ccc(CNC(=O)C2C3C=CC4(CN(Cc5cccnc5)C(=O)C24)O3)cc1 (centres undefined)	-11.8%
O=C(N/N=C/c1ccc[nH]1)c1ccc2c(c1)OCO2	-7.2%
COc1ccccc1C(=O)NCC(=O)N1CCN(S(=O)(=O)c2ccc3c(c2)OCCO3)CC1	2.2%
CP(=O)(Nc1cc(Cl)ccc1Cl)c1nc2c(s1)CCCC2 (centres undefined)	-13.6%
CC(C)N(C(=O)[C@H]1C[C@H](CC(=O)NCCN2CCOCC2)C(=O)N2CCc3c([nH]c4ccc(Cl)cc34)[C@]12C)C(C)C	-10.1%
COc1ccc(OC)c(CC(NC(C)=O)C(=O)NC2CCN(c3c(Cc4ccccc4)c(C)nc4ncnn34)CC2)c1 (centres undefined)	-9.0%
CN(C)c1ccc(/C=C2\CCCCC2=O)cc1	16.9%
Cc1c(N=Cc2nc3ccccc3n2C)c(=O)n(-c2ccccc2)n1C	29.1%
CCN(CC)CCN(Cc1cc2cc3c(cc2[nH]c1=O)OCO3)C(=S)NCCOC	-9.3%

# Continued:
SMILES	VDR inh
Cc1ccc(-c2nnc(SCC(=O)N3CCN(c4ccccc4)CC3)o2)cc1	1.2%
CC(C)CCNC(=O)Cn1nc(N2CCN(c3ccccc3)CC2)ccc1=O	-0.3%
CCOC(=O)CN1C(=O)C(=O)c2cccc(C)c21	-5.9%
CCc1ccccc1NC(=O)Cc1ccc(NC(=O)N2CCCCc3ccccc32)cc1	3.4%
CCCNC(=O)[C@H](Cc1c[nH]c2ccccc12)NC(=O)c1ccccc1Cl	-6.0%
Cc1cccc(N2C(=O)Cc3ccccc3C2=O)c1	-5.4%
CCCCC(=O)Nc1ccc(NC(=S)NC(=O)CCCCl)cc1OC	-4.3%
COc1ccccc1-n1c(SCC(=O)N2CCCCC2)nc2cccnc21	-7.2%
Cc1c(N=C2NC(=O)C(CC(=O)Nc3ccc(Cl)cc3)S2)c(=O)n(-c2ccccc2)n1C (centres undefined)	4.6%
COc1cccc(C2CC(C(F)(F)F)n3ncc(C(=O)NCC4CCCO4)c3N2)c1 (centres undefined)	-13.2%
C=CCn1c(=NC(=O)C2COc3ccccc3O2)sc2cccc(OC)c21 (centres undefined)	3.7%
COCCNC(=O)CSc1cc(=O)n(C)c2cc(Cl)ccc12	7.4%
O=C(COc1ccc2ccccc2c1)NN1C(=O)c2ccccc2C1=O	-6.5%
COc1cc2c(cc1OC)C(c1cccc([N+](=O)[O-])c1)=NCC2	3.9%
COc1ccc(NC(=O)CC(C(=O)O)C(C)c2ccccc2)cc1 (centres undefined)	-12.5%

# Remaining list, next part
Structure	VDR inh
O=C1c2ccccc2NC(c2cn[nH]c2-c2ccc(Cl)cc2)N1O (centres undefined)	-15.4%
C=CCOc1ccc(/C=C(\C#N)C(=O)Nc2ccccn2)cc1	6.9%
Cc1ccc(/C=C(\C#N)C(=O)Nc2cccc3ncccc23)o1	?
COc1cc(/C=N/NC(=O)CC#N)ccc1Oc1nc(Cl)ncc1F	-30.0%
CCOC(=O)Cc1csc(NS(=O)(=O)c2ccc(C(F)(F)F)cc2)n1	-12.1%
O=C(N/N=C\c1ccccc1F)c1ccc(-c2ccccc2)cc1	11.7%
Cn1/c(=N/NC(=O)c2ccccc2F)sc2ccccc21	17.1%
COc1ccc(C(=O)c2c(O)cc(-c3ccc(OC)cc3)oc2=O)cc1	?
O=C(Cn1nc(-c2ccccc2)c2cnc3ccc(F)cc3c21)NC1CCCC1	3.0%
Cc1ccc(C)c(OCCC(=O)OCC(=O)N(C)c2c(N)n(Cc3ccccc3)c(=O)[nH]c2=O)c1	-18.6%
CN1CCN(NC(=O)Nc2ccc(Br)cc2)CC1	0.0%
CCOC(=O)c1sc(NC(=O)Nc2ccccc2Cl)cc1C	-3.3%
Cc1ccsc1/C=N/NC(=O)c1ccc([N+](=O)[O-])cc1	-8.0%
Cc1ccccc1NC(=O)NCCCN1CCN(c2ccccc2F)CC1	-0.6%
CCN1CCN(C(=S)Nc2cccc([N+](=O)[O-])c2)CC1	-0.7%
Cc1cccc(-n2nnnc2-c2cnccc2C(F)(F)F)c1C	?
O=C(CN1C(=O)NC2(CCCCCC2)C1=O)Nc1ccc([N+](=O)[O-])cc1	-19.4%
NNC(=O)c1oc2nc(-c3ccccc3)cc(-c3ccco3)c2c1N	8.3%
Cn1c(N)c(C(=O)c2ccccc2)c(=O)n(C)c1=O	7.1%
COc1ccccc1/C=C1\SC(N2CCC(C)CC2)=NC1=O	8.7%

# (list continues)
Structure	VDR inh
COc1cccc(-c2nnc(NC(=O)c3ccc(S(=O)(=O)N4CC(C)OC(C)C4)cc3)o2)c1 (centres undefined)	-4.9%
CN(Cc1ccco1)C(=O)C1CCC(=O)N1Cc1ccc(F)cc1 (centres undefined)	5.3%
O=C(O)c1ccccc1NCc1ccsc1	3.0%
CCOC(=O)C[N+](C)(C)CCOC1CC2CCC1(C)C2(C)C (centres undefined)	26.8%
CCN(CC)CCNC(=O)C(=O)Nc1c2c(nn1-c1ccc(F)cc1)CSC2	9.3%
CC1CC(C)CN(C(=O)C(Cc2ccccc2)NC(=O)c2ccccc2)C1 (centres undefined)	1.9%
Cc1ccccc1NC(=O)CSc1n[nH]c(-c2ccco2)n1	-22.6%
CCS(=O)(=O)N1CCc2cc(C(=O)Nc3ccc(OC)c(Cl)c3)ccc21	7.0%
CCOc1cc(C(=O)Nc2cc(C)on2)cc(OCC)c1OCC	-9.5%
CC(C)Oc1ccc(-c2cc(C(=O)NCCN3CCOCC3)c3ccccc3n2)cc1	5.8%
Cn1c(=O)c2c(nc(CN3CCN(c4ccccc4)CC3)n2CCc2ccccc2)n(C)c1=O	5.8%
O=C(CCNC(=O)c1ccccc1Cl)Nc1cc(S(=O)(=O)N2CCOCC2)ccc1N1CCCC1	-5.3%
COc1ccc(OCC(=O)Nc2cccc(S(=O)(=O)N(C)c3ccccc3)c2)c([N+](=O)[O-])c1	-2.2%
CC(=C/c1ccc(C(C)C)cc1)/C=N/NC(=O)CSc1ccccn1	45.7%[activator]
CCOC(=O)c1cc(C#N)c(SCC(=O)OC)[nH]c1=O	-13.0%
COc1ccccc1/C=C/C(=O)NCC(=O)N=Nc1c(O)[nH]c2ccccc12	-18.9%
CCCCC(=O)Nc1nnc(S(=O)(=O)N(CC)c2cc(C)cc(C)c2)s1	1.0%
COc1ccc(-n2c(SCC(=O)C(C)(C)C)nc3c(sc(=S)n3-c3ccccc3)c2=O)c(OC)c1	31.6µM*
Cn1cnnc1SC1CCCCC1NS(=O)(=O)c1ccccc1 (centres undefined)	-13.3%
Cc1csc(NC(=O)CN2C(=O)COc3ccc(Cl)cc32)n1	-1.4%

# (further entries)
Structure	VDR inh
CCCc1cc2c(=O)c(-c3ccc4c(c3)OCCO4)coc2cc1OS(C)(=O)=O	-15.8%
COC(=O)c1nc2ccccc2s1	-3.1%
Cc1ccc(S(=O)(=O)N(C)C)cc1NC(=O)COC(=O)/C(=C/c1ccc(F)cc1)c1cccs1	-0.5%
COc1ccccc1NC(=O)c1nn(C)c2c1CS(=O)(=O)c1ccccc1-2	11.6%
COc1ccc(CC(=O)NNC2=Nc3cccc4cccc2c34)cc1	13.3%
CS(=O)(=O)c1cnc2c(-c3ccc(F)cc3)cnn2c1N	-7.6%
COC(=O)c1cc2oc3ccccc3c2n1Cc1nc(-c2ccc(OC)cc2)oc1C	-3.5%
COc1ccccc1NS(=O)(=O)c1cccc(C(=O)N(C)Cc2cccs2)c1	-3.8%
CCCCSc1nc(C)c(CC(=O)OC)c(=O)[nH]1	-0.8%
NCC(=O)N[C@@H](CCCN=C(N)N)C(=O)NCC(=O)N[C@@H](CCC(=O)O)C(=O)N[C@@H](CO)C(=O)O	-0.3%
Clc1ccc(-c2cn3nc4c(nc3n2)CCCC4)cc1	-0.3%
CCN(C(=O)c1c(-c2ccccc2Cl)noc1C)C1CCCCC1	-15.5%

# In a second layout: entries from further up.
CCN(C(=O)c1c(-c2ccccc2Cl)noc1C)C1CCCCC1
  VDR inh: -15.5%

Cc1ccc(S(=O)(=O)N(C)C)cc1NC(=O)COC(=O)/C(=C/c1ccc(F)cc1)c1cccs1
  VDR inh: -0.5%

CCCc1cc2c(=O)c(-c3ccc4c(c3)OCCO4)coc2cc1OS(C)(=O)=O
  VDR inh: -15.8%

COC(=O)c1nc2ccccc2s1
  VDR inh: -3.1%
